# Assay outcomes (PubChem)
# NPYLR7 ag: agonists of mosquito NPYLR7 receptor, primary screen, cell-based, Aedes aegypti, calcium fluorescence, mosquito biting behavior | activation, % at 10 µM | 270,000 tested, 0.15% active | HEK293T NPYLR7/Galpha15, GCaMP6s calcium fluorescence | Aedes aegypti neuropeptide Y-like receptor 7 (NPYLR7); in the data active = activation above about 40%;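 also: 0% = vehicle and 100% = reference agonist at the receptor; some compounds past the cut are filed as inactive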
# NPYLR7 ag max-min: second read-out of NPYLR7 ag, no call of its own (marks repeat the call); activation, %; measured here: Max-Min RFU normalised activation; some inactives read as strong as hits;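 span of the calcium signal over five minutes; 0% = vehicle and 100% = native peptide agonist; compound fluorescence can raise it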
# Numbers without * were called inactive; & = joins results of further samples. A portion of the library; rates above refer to the full screens.
compound	NPYLR7 ag	NPYLR7 ag max-min
O=[N+]([O-])c1ccc(Cl)c(C2c3cccn3CCCN2Cc2ccc(F)c(Cl)c2)c1 (configuration not stated)	23	26
O=C(Cc1ccccc1)N(Cc1nc2cc(Cl)ccc2o1)C1CC1	3	2
CCc1cc(C(=O)N2CCc3c(c(C(=O)N4CCN(c5ccccc5)CC4)nn3CC)C2)no1	11	-2
CC(C)c1ccc(S(=O)(=O)c2ccc(Cl)cc2)cc1	4	4
CCC1(c2ccc(OC)cc2)NC(=O)NC1=O (configuration not stated)	-7	-9
CN(CC1CCC1)C(=O)CCc1nc2ccccc2c(=O)n1C1CC1	-7	620
Cc1ccc2cc(C3(O)CCN(C(=O)[C@@H]4C[C@@H]5C=C[C@H]4C5)CC3)ccc2n1	0	-6
Nc1nnc(SCC(=O)c2ccc(OCc3ccccc3)cc2)s1	15	17
CC1=CC(C)C2C(=O)N(CCCN(C)C)C(=O)C2C1 (configuration not stated)	4	0
Cc1cc(-c2ccc(S(=O)(=O)N(C)CC(=O)O)cc2)nc2ccccc12	6	4
COc1cc(NC(=O)c2cccc(N3C(=O)NC4CC3(C)Oc3ccccc34)c2)cc(OC)c1OC (configuration not stated)	-13	-19
CN(Cc1ccc(Cl)c(Cl)c1)C(=O)CNC(=O)c1ccco1	6	2
COc1cc([N+](=O)[O-])ccc1N=Cc1nc(-c2ccccc2F)oc1O	-1	-7
CCn1c(=O)n(CC(=O)Nc2c(F)cccc2F)c2ccccc21	9	-2
Cc1ccc(C(=O)Nc2ccc(=O)n(C)c2)c(C)c1	-3	-3
COc1cc2c(cc1CN1C[C@H](O)[C@@H](N3CCN(C)CC3)C1)OCCCO2	-3	-7
O=C(Nc1ccc(F)c(F)c1)c1ccc(N2CC3CC(C2)c2cccc(=O)n2C3)c(NC(=O)c2cc3ccccc3oc2=O)c1 (configuration not stated)	-4	2
COc1ccc(C(O)=C2C(=O)C(=O)N(c3ccccn3)C2c2cccc(Br)c2)cc1 (configuration not stated)	3	1
Cc1cccc(C)c1-c1c(-c2ccccc2)ncn1CCCc1nn[nH]n1	20	11
CN1CCN(CCCN(C)S(=O)(=O)c2ccc(F)cc2F)CC1	1	-19
Cc1nonc1CN(C)C(=O)CC(c1ccccc1)c1ccc2c(c1)OCO2 (configuration not stated)	-2	-6
CCOC(=O)C1=C(C)NC(C)=C(C(=O)OC)C1c1ccc(Cl)c(Cl)c1 (configuration not stated)	0	1
CC(=O)c1ccc(N2C(=O)C3C4C=CC(CC4)C3C2=O)cc1 (configuration not stated)	6	5
O=S(=O)(Cc1nccn1CC(F)(F)F)c1ncc[nH]1	-2	-2
Cc1nn2c(=O)cc(CN3CCN(S(=O)(=O)c4ccc(F)cc4)CC3)nc2s1	-1	-2
O=C(CCCc1c[nH]c2ccccc12)N1CCCC2(CCNCC2)CC1	7	2
CCc1nc2ccccc2n2c(-c3cccc(C)c3)c3c(=O)n(C)c(=O)n(C)c3c12	-17	-20
CCOc1ccc(NC(=O)N[C@@H](Cc2ccccc2)C(=O)N2CCC(C(=O)NCc3cccc(OC)c3)CC2)cc1	-11	-4
Nc1cc(F)ccc1NC(=O)/C=C/c1cnn(C/C=C/c2ccccc2)c1	6	0
CCOC(=O)c1c(C)c(C(=O)CN(C(=O)Nc2c(Cl)cccc2Cl)C2CC2)c(C)n1CC	-7	3
CC(C)(CNC(=O)c1ccc2ccccc2c1O)N1CCCCC1	-6	-9
CCOC(=O)C1=C(C)NC2=C(C(=O)CCC2)C1c1ccc(OC(F)F)cc1 (configuration not stated)	-5	-11
COc1ccc(N(CN2C(=O)c3ccccc3C2=O)C(=O)c2ccccc2)cc1	1	0
C=CCn1c(SCC(=O)N2CCCCC2)nc2scc(-c3ccc(C)cc3)c2c1=O	-1	-9
CCOc1ncccc1CN1CCCC(C(=O)Nc2ccc(Oc3ccccc3)cc2)C1 (configuration not stated)	1	-3
CC(C)N(CCO)C(=O)c1cccc(-c2cccc(F)c2)c1	5	1
CCN(CC)CCn1c2c(c(SCC(=O)Nc3cccc(C(F)(F)F)c3)nc1=O)CCC2	-1	-3
CC1(C(=O)NS(=O)(=O)c2cccc(C#N)c2)CCN1C(=O)Cc1cc(F)ccc1F (configuration not stated)	3	1
CCCCCN(CC(=O)Nc1cc(C(C)(C)C)nn1-c1ccc(Cl)c(Cl)c1)C(=O)Nc1ccc(OC)cc1	14	12
CCCSc1ncccc1C(=O)NCCCN1CCOCC1	-18	-27
CCOc1ccc(OCC)c(NC(=O)COc2cccc(C=O)c2)c1	9	1
CCOC(=O)C1=C(COC(=O)c2cc(-c3ccco3)nc3ccccc23)NC(=O)NC1c1ccco1 (configuration not stated)	-2	-2
Cc1ccc(C(O)(c2ccccc2)c2cnc(C(C)C)n2C)cc1 (configuration not stated)	18	10
C=CCN(CC(=O)N1CCc2sccc2C1COc1cccc(OC)c1)C(=O)c1ccco1 (configuration not stated)	-2	0
Cn1c(C2C(=N)N(NC(=O)OC(C)(C)C)CC2=O)nc2ccccc21 (configuration not stated)	1	8
FC(F)(F)C1(c2n[nH]c(Cc3ccccc3)n2)CC1	6	4
CCCn1c(C)c(CC(=O)N(C)Cc2nnc(C)o2)c2c1CC(C)(C)CC2=O	3	1
Cc1cccc(-c2nc(C)c(C)c(N3CCN(C(=O)Nc4cccc(C(F)(F)F)c4)CC3)n2)c1	14	10
CCOC(=O)CCC(=O)N1CCC[C@H]1C(=O)N1CCC(C(=O)NCc2cccc(OC)c2)CC1	39	29
O=C(c1cc(F)cc(C(F)(F)F)c1)N1CCN(c2nccc(-c3ccco3)n2)CC1	16	28
COc1ccc(-n2nc([N+](=O)[O-])c(=Nc3ccc(C)cc3Cl)n2O)cc1	0	-2
Cc1cc(CNC(=O)C2CCCCO2)c2[nH]c(C)c(C)c2c1 (configuration not stated)	-11	-14
O=C(Nc1nc(-c2ccc3c(c2)OCO3)cs1)C1CCCCC1	4	1
COc1ccccc1OC1CN(C(=O)c2ccc(-n3cnnc3)cc2)C1	11	8
O=C(c1cnc(-c2ccncc2)nc1)N1CCOC(CCCc2ccccc2)C1 (configuration not stated)	9	3
COc1ccc(-c2cc(C(=O)Nc3sc(C)c(C)c3C(=O)OC(C)C)c3ccccc3n2)cc1	13	3
CC1=C(C(=O)Nc2cccnc2)C(c2ccc(C)cc2)n2nc(SCc3ccccc3)nc2N1 (configuration not stated)	-6	-7
Fc1ccc(C(F)(F)F)cc1CN1CCCC1c1ccccn1 (configuration not stated)	3	2
CCSCC(C)NCc1noc(-c2ccco2)n1 (configuration not stated)	1	1
Cc1nc(N(C)C)nc(-c2cc(N)nc3[nH]ccc23)c1C	0	-5

# Next section:
compound	NPYLR7 ag	NPYLR7 ag max-min
Cn1ccnc1CN1CCCC(CCNC(=O)C(C)(C)C)C1 (configuration not stated)	-1	-1
CC(C)[C@H]1CC[C@H](C)C[C@@H]1OCC(=O)N1CCC(O)(c2ccccc2)CC1	-8	-15
Cc1cc(C)n(Cc2ccccc2F)c1C(=O)NN1CCOCC1	20	31
c1ccc(Cn2c(-c3ccccc3)cc3cnc(Nc4ccncc4)cc32)cc1	8	10
CN(Cc1cccc2ncccc12)CC1CCOC1 (configuration not stated)	4	3
O=C(O)c1nc(Cl)c(Cl)c(N/N=C\C2CC=CCC2)c1Cl (configuration not stated)	10	19
Cc1ccc(F)c(NC(=O)CCC(=O)N(Cc2sccc2C)C2CC2)c1	1	19
Cc1ccc(-n2nnnc2CNC(=O)c2ccccc2S(C)(=O)=O)cc1C	3	1
Cc1nc(N2CCC(C(=O)N3CCC(O)(c4cccnc4)CC3)CC2)nc2ccc(C(C)C)cc12	-4	-8
CC(C)=CCCC1(C)C=Cc2c(c(C)cc3c2[nH]c2ccccc23)O1 (configuration not stated)	5	3
COc1ccc(CC(=O)N2CCOC(COCc3ccccc3F)C2)cc1F (configuration not stated)	23	21
NC(=O)c1cccc(NS(=O)(=O)c2ccccc2Cl)c1	-6	-9
COc1cccc(C=CC(=O)c2ccc3c(c2)NC(=O)CO3)c1OC(F)F	1	0
COc1ccc(CN2CCN(c3ccc(Oc4ccccc4)cc3)C(=O)C2C)cc1 (configuration not stated)	-2	3
Cc1cccc(NC(=O)Cn2nc3n(C(C)C)c(=O)c4ccc(C(=O)NC(C)C)cc4n3c2=O)c1	-2	-4
Cc1cc(NC(=O)N(C)C2CCN(Cc3ccccc3)CC2C)no1 (configuration not stated)	4	1
COC(=O)CCc1c(C)nn(-c2ccc(C(=O)NC(C)(Cc3ccccc3)C(=O)OC)cc2)c1C (configuration not stated)	-11	-15
O=C(Nc1nnc(Cc2ccccc2F)s1)c1cccs1	-2	-3
Cc1ccc(Nc2nc(N3CCN(c4ccccc4)CC3)nc3nccnc23)cc1	1	7
O=C(NCc1ccc(Cl)cc1)C1CCN(c2nccs2)CC1	1	-1

# 4 consecutive entries out of the list so far:
compound	NPYLR7 ag	NPYLR7 ag max-min
CN1CCN(CCCN(C)S(=O)(=O)c2ccc(F)cc2F)CC1	1	-19
Cc1nonc1CN(C)C(=O)CC(c1ccccc1)c1ccc2c(c1)OCO2 (configuration not stated)	-2	-6
CCOC(=O)C1=C(C)NC(C)=C(C(=O)OC)C1c1ccc(Cl)c(Cl)c1 (configuration not stated)	0	1
CC(=O)c1ccc(N2C(=O)C3C4C=CC(CC4)C3C2=O)cc1 (configuration not stated)	6	5

# (list continues)
compound	NPYLR7 ag	NPYLR7 ag max-min
Cc1cccc(-c2nc(C)c(C)c(N3CCN(C(=O)Nc4ccc(Br)cc4)CC3)n2)c1	-4	3
COc1ccccc1C1CN(Cc2c(C)nc3sccn23)Cc2ccccc2O1 (configuration not stated)	28	10
CCCNC(=O)c1cc(S(=O)(=O)N(C)C)ccc1Cl	11	4
O=c1[nH]c(CN2CCCC2c2cccs2)nc2ccsc12 (configuration not stated)	0	3
Fc1ccc(NN=Cc2ccc3ncccc3c2)c(F)c1	8	8
CCn1nc(C)c(NC(=O)CNCC2(C)CC(C)=NO2)c1C (configuration not stated)	6	4
COc1ccc(C2c3[nH]c4ccccc4c3CCN2C(=O)c2cc(C(C)=O)n[nH]2)c(F)c1 (configuration not stated)	10	8
CCCCn1c(N2CCN(Cc3ccccc3C)CC2)nc2c1c(=O)[nH]c(=O)n2C	12	9
CCOC(=O)c1c(C)[nH]c(C(=O)N2CCN(C(=O)OCC)CC2)c1C	1	0
CCn1c(=O)c(C(=O)O)nn(-c2ccc(C)c(Cl)c2)c1=O	2	7
O=C(NCc1ccc(Cn2ccccc2=O)cc1)N1CCCCCCC1	1	-3
O=C(C1CCCC1)N(Cc1nccn1Cc1c(F)cccc1Cl)C1CC1	2	10
Cc1csc(N2CCN(C(=O)NC(C)c3ccc(F)cc3F)CC2)n1 (configuration not stated)	-2	-3
Cc1[nH]nc2c1C1(C(=O)Nc3ccccc31)C(C#N)C(=N)O2 (configuration not stated)	-6	-13
CC(O)CN1CCN(C(=O)c2cc(C(C)(C)C)[nH]n2)CC1 (configuration not stated)	17	16
Cc1cc(C(=O)N(Cc2ccccn2)c2nc3c(C(C)C)cccc3s2)nn1C	6	5
CCc1ccc(NC(=O)CN2CN(c3ccccc3)C3(CCN(C(=O)c4cccs4)CC3)C2=O)cc1	2	11
CCn1cc(CN2CCCC(CNC(=O)c3cccc(OC)c3OC)C2)cn1 (configuration not stated)	13	0
O=C(Cn1cnc2sc3c(c2c1=O)CCC3)NCCc1cccs1	-6	-7
CN(C)c1ccc(NC(=O)c2cccc(F)c2)cc1CN(Cc1ccc(F)cc1)S(=O)(=O)c1ccc(F)cc1	20	14

# Taken from above.
# In NPYLR7 ag max-min, `CN(C)c1ccc(NC(=O)c2cccc(F)c2)cc1CN(Cc1ccc(F)cc1)S(=O)(=O)c1ccc(F)cc1` shows 14
# In NPYLR7 ag max-min, `CCCCn1c(N2CCN(Cc3ccccc3C)CC2)nc2c1c(=O)[nH]c(=O)n2C` shows 9
# In NPYLR7 ag max-min, `O=C(C1CCCC1)N(Cc1nccn1Cc1c(F)cccc1Cl)C1CC1` shows 10
# In NPYLR7 ag max-min, `CCn1nc(C)c(NC(=O)CNCC2(C)CC(C)=NO2)c1C` (configuration not stated) shows 4

# Other compounds follow:
compound	NPYLR7 ag	NPYLR7 ag max-min
Cc1c(Cl)c([N+](=O)[O-])nn1CC(=O)NCCCn1ccnc1	-6	-10
c1ccc(CCNc2nsc3ccccc23)cc1	5	1
CCc1cc(N2CCCC(Cn3ccnc3)C2)nc(N2CCOCC2)n1 (configuration not stated)	15	7
COCCNC(=O)[C@@]1(OCc2ccccc2C#N)CC(OCc2cccc(OC(F)(F)F)c2)[C@@H]2OC(C)(C)O[C@@H]2C1 (some centres not stated)	6	20
Cc1oc(-c2ccc(F)cc2F)nc1CN1CCCC(COc2ccccc2F)C1 (configuration not stated)	6	1
C#CCN1CCN(C(=O)CCCc2ccc(OC)c(F)c2)CC1	0	-2
Cc1ccc(C)c(-n2c(CNC(=O)c3cccs3)nnc2SCC(=O)N2CCc3ccccc32)c1	13	10
COc1cccc(N(C(C)=O)c2nc(C=C3COc4ccccc4C3=O)cs2)c1	5	7
CC(=O)c1c(SC(C)c2ccc(F)cc2)nc(=O)[nH]c1C (configuration not stated)	7&0	7&0
CC(C)Cn1c(CN(C)CCOc2ccccc2)cnc1S(C)(=O)=O	5	3
Cc1ccn(CCC(=O)N2CCCC(CCC(=O)N3CCN(c4ccccn4)CC3)C2)n1 (configuration not stated)	10	8
Cc1cccc(N2C(=O)NC3CC2(C)Oc2ccccc23)c1 (configuration not stated)	-7	-12

# 2 entries picked at random from those above:
compound	NPYLR7 ag	NPYLR7 ag max-min
CC(=O)c1c(SC(C)c2ccc(F)cc2)nc(=O)[nH]c1C (configuration not stated)	7&0	7&0
C#CCN1CCN(C(=O)CCCc2ccc(OC)c(F)c2)CC1	0	-2
